Bioassay records from PubChem BioAssay.
CapD inh: Bacillus anthracis CapD inhibitors, primary screen, biochemical, fluorescence intensity; purified CapD enzyme, fluorescence intensity read-out; hits give low values; some hits fall short of the stated cut; CapD gamma-glutamyltranspeptidase (Bacillus anthracis Ames Ancestor); z-score (no concentration beside the values); actives 0.23% (n = 140,000);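 active = z-score under -4 in either of two replicates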;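 also: stock transfer was 100 nL into about 40 µL; score is relative to mean and spread of the plate; one replicate is shown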
AID504770: growth inhibition of E. coli YBA685, primary screen, V. cholerae RctB inhibitors; E. coli YBA685 rctB-dependent plasmid, OD600 growth, 3 h; hits give low values; z-score (concentration not given with the values); actives 0.27% (n = 130,000); AID 504770, 2011;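 active = z-score under -2 on both plates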;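 also: wells of about 30 µL received 100 nL stock; score is relative to mean and SD of the test wells; the first replicate is given; strong numbers were not always called active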
An asterisk follows results filed as active; x = no result given.

Each structure is followed by: CapD inh	AID504770
1) CC(=O)Nc1nc([N+](=O)[O-])c(SCC(=O)O)s1
    -1.2	x
2) O=P(O)(CN1CCOCC1)C1CCCCC1O (configuration not stated)
    0.17	-0.25
3) CCn1c(CCNC(=O)c2ccccc2OC)nc2ccccc21
    0.075	-0.55
4) O=C(NCCCn1ccnc1)c1nn2c(C(F)(F)F)cc(-c3cccs3)nc2c1Br
    -1.4	x
5) O=C(NC1CCCCCC1)N1CCOCC1
    x	-0.7
6) CC1Cc2cc(OCC(=O)O)ccc2C1=O (configuration not stated)
    0.19	-0.5
7) COc1ccc(/C=C2/SC(=O)N(CCC(=O)O)C2=O)cc1
    -1	-0.5
8) CC(C(=O)O)N1C(=O)NC2NC(=O)NC21 (configuration not stated)
    x	-0.6
9) Cc1nnc(SCC(=O)n2c3c(c4c2CCCC4)CCCC3)n1Cc1ccccc1
    0.19	2.4
10) CC1=CC(=O)N(c2ccc(C)cc2)C1c1ccc(Cl)cc1 (configuration not stated)
    x	1.4
11) Cc1cc2c(cc1C)CSC(c1cccc([N+](=O)[O-])c1O)SC2
    -0.045	x
12) CC1Cn2c(nnc2C23CC4CC(CC(C4)C2)C3)S1 (configuration not stated)
    -0.22	-0.55
13) Fc1cccc(CNCC2CCCO2)c1 (configuration not stated)
    -1.4	2.6
14) O=C(O)CCP(=O)(O)CN1CCCCC1
    0.26	1.5
15) O=C(Nc1ccc(Cl)cc1)OC(CN1CCCCC1)C(F)(F)F (configuration not stated)
    0.11	x
16) N#C/C(NCc1ccccc1Cl)=C(\C#N)NCc1c(F)cccc1Cl
    -0.59	x
17) O=C(O)CP(=O)(O)c1ccc(Cl)cc1
    -1.8	0.35
18) COc1ccc(NC(=O)c2ccco2)c(NC(=O)c2ccc(I)cc2)c1
    0.18	0.6
19) CCCn1c(=N)c(C(N)=O)cc2c(=O)n3cc(C)ccc3nc21
    36	0.35
20) CN(CC(=O)NCCc1ccccc1)c1nnc(N2CCCC2=O)s1
    -0.46	0.2
21) COc1ccc(NC(C)=O)cc1NC(=O)C(NC(=O)c1cc(OC)c(OC)c(OC)c1)C(C)C (configuration not stated)
    x	-0.8
22) COC(=O)c1cnn2c1NCN(Cc1cccc(OC)c1)C2
    0.49	-0.8
23) C1=CC2C(C1)C1CC2C2N=NN(c3ccccc3)C12 (configuration not stated)
    0.065	0.45
24) CC12c3ccccc3C(c3ccccc31)C1C(=O)N(c3ccc(I)cc3)C(=O)C12 (configuration not stated)
    -0.4	x
25) C/C(=N\N=C(N)N)c1ccc(C)cc1
    -0.21	1.1
26) Cc1ccc(S(=O)(=O)N(C)C)cc1C(=O)OCC(=O)c1cc2c3c(c1)CC(=O)N3CCC2
    x	-0.95
27) Cc1cc(C)c2c(c1NC(=O)N1CCCC1)CC(C)(C)C2=O
    -0.11	1.1
28) CC(=NCC1CCCO1)C1=C(O)CC(C)(C)CC1=O (configuration not stated)
    0.32	0.75
29) Cc1ccc(Cc2cnc(NC(=O)C(c3ccccc3)c3ccccc3)s2)cc1
    0.25	1.4
30) O=c1c2cc(Cl)ccc2nc2ccc(N3CCCC3)nn12
    -0.26	-0.55
31) O=C(COc1ccc(F)cc1Cl)NCC1CN(Cc2ccccc2)CCO1 (configuration not stated)
    x	0.9
32) CC(C)C(=O)OCc1cc(=O)n2cc(Br)ccc2n1
    x	-0.6
33) Cc1ccc2c(c1)nc(C(=O)O)n2CCO
    x	-0.5
34) COc1cc(C=C2C(=O)NC(=O)NC2=O)cc(Cl)c1OS(=O)(=O)c1ccccc1
    0.14	x
35) Cc1ccc2nc(COc3ccccc3C#N)cc(=O)n2c1
    x	0.1
36) CS(=O)(=O)N1CCC(C(=O)NCC2CCCO2)CC1 (configuration not stated)
    x	-0.4
37) O=C(N/N=C/c1ccncc1)c1ccccc1Oc1ccccc1
    -0.39	x
38) CCN(C(=O)C1Cc2ccccc2CN1S(=O)(=O)c1ccc(F)cc1)c1ccccc1 (configuration not stated)
    -0.07	-0.9
39) N#CC1=C2SCN(Cc3ccccc3)CN2C(=O)CC1c1cccs1 (configuration not stated)
    -1.4	-0.3
40) COc1cc(C)nn1-c1ccc(Cl)cc1
    0.67	1.1
41) CC(=O)OC(C(=O)NCc1ccc(F)cc1)c1ccccn1 (configuration not stated)
    x	-0.25
42) N#CC1=C(N)Oc2n[nH]c(-c3cccc([N+](=O)[O-])c3)c2C1c1cc(Br)ccc1F (configuration not stated)
    -0.43	x
43) Cc1ccc(-c2nc(CS(=O)CC(=O)NC3CCCCC3)c(C)o2)cc1 (configuration not stated)
    -0.14	0.25
44) O=C1c2ccccc2N2C(=O)CCC2(C(=O)Nc2ccc(N3CCCCC3)cc2)N1Cc1ccccc1 (configuration not stated)
    x	-0.15
45) NC(=O)CN1C(=O)C(O)(CC(=O)c2ccc(Cl)s2)c2ccccc21 (configuration not stated)
    0.49	0.15
46) C=CCN1C(=O)/C(=C/c2cc(C)n(-c3ccc(CC)cc3)c2C)SC1=S
    -0.93	-0.2
47) CCCOC1(NC(=O)c2ccc(C)cc2)C(C)=CC(=O)C=C1C
    -0.15	-0.75
48) N#CC1(C#N)[C@H](c2cccc(F)c2)[C@@H](C(=O)c2ccccc2)N2c3ccc(Cl)cc3C=C[C@@H]21
    0.3	x
49) CN(Cc1ccccc1)C(=O)c1cc(-c2ccc(F)cc2)on1
    -0.39	-0.2
50) CCC(=O)Nc1ccc2c(c1)nc(CCNC(=O)c1ccccc1)n2C
    x	-0.6
51) CC(C(=O)O)N1C(=O)OC(C)(C)C1(C)O (configuration not stated)
    5.9	x
52) COC(=O)C(Cc1ccc(Cl)cc1)NC(=O)OCCc1cccc(C)c1 (configuration not stated)
    0.23	x
53) CN(C)CCNc1nsc2ccccc12
    x	-0.45
54) CSc1nnc(NC(=O)C2CCCCC2)s1
    0.065	-0.7
55) N#CC1=C(N)N(c2ccccc2)NC1(C(F)(F)F)C(F)(F)F
    0.015	-0.1
56) CCOc1cc(C2C(C(=O)Nc3ccccc3)=C(C)Nc3nnnn32)ccc1OC(=O)c1ccccc1 (configuration not stated)
    -0.42	x
57) Cn1nc(CC(=O)Nc2ccc3c(c2)CCC3)c2ccccc2c1=O
    x	0.6
58) CC(C)NC(=O)C1CCC(=O)N1Cc1ccccc1Cl (configuration not stated)
    -0.1	0.1
59) NC1=[N+](c2ccccc2)Cc2ccccc21
    -0.17	-0.1
60) NC(=O)N1CCCC1=O
    x	-0.65

Complete entries from above. Values in the order: CapD inh	AID504770
CCn1c(CCNC(=O)c2ccccc2OC)nc2ccccc21 in the list: 0.075	-0.55
N#CC1=C(N)N(c2ccccc2)NC1(C(F)(F)F)C(F)(F)F in the list: 0.015	-0.1
N#CC1(C#N)[C@H](c2cccc(F)c2)[C@@H](C(=O)c2ccccc2)N2c3ccc(Cl)cc3C=C[C@@H]21 in the list: 0.3	x
CC12c3ccccc3C(c3ccccc31)C1C(=O)N(c3ccc(I)cc3)C(=O)C12 (configuration not stated) in the list: -0.4	x

Remaining list, next part
Each structure is followed by: CapD inh	AID504770
61) Cn1c(-c2cc3ccc(O)c(CN4CCCCCC4)c3oc2=O)nc2ccccc21
    x	-0.2
62) CCOC(=O)c1sc2nccc(N(C)C)c2c1N=CNOCc1ccccc1
    27	x
63) CCn1c(=O)c(=O)[nH]c2cc(C(=O)Nc3ccccc3N3CCOCC3)ccc21
    x	-0.8
64) Cc1ccc(C(=O)CC(c2ccccc2)C(C#N)C#N)cc1 (configuration not stated)
    28	1.4
65) Cc1nn(-c2ccccc2)c(Oc2ccc(F)cc2)c1/C=N/NC(N)=O
    x	-0.45
66) COc1ccc(C2CC(=O)C3=C(C2)Nc2ccccc2NC3c2cc3c(cc2Cl)OCO3)cc1OC (configuration not stated)
    -1.1	x
67) CCCSC1=C(C#N)C(c2ccco2)C(C(=O)Nc2ccccc2OC)=C(C)N1 (configuration not stated)
    4.3	-0.3
68) O=C(/C=C/c1ccc(Br)o1)Nc1nccs1
    -0.18	0.5
69) CCNc1nc(NCC)nc(N2n3c(nc4sc5c(c4c3=O)CCCC5)SCC2(O)c2ccc(OC)cc2)n1 (configuration not stated)
    -0.75	0.35
70) COc1ccc(S(=O)(=O)N(Cc2ccc(S(C)(=O)=O)cc2)C2CCN(Cc3ccccc3)CC2)cc1
    -0.11	x
71) O=C(O)C12CCCC(Br)(CCC1)C2
    -0.24	-0.45
72) COc1ccc(NC(=O)c2cccc3c2C(=O)N(C2CCCCC2)C3)cc1
    -0.64	1.6
73) CCN(C(=O)CSc1ccccn1)C1CCCCC1
    -0.44	-0.65
74) O=C(CSc1ccccc1C(=O)O)NCC1CCCCC1
    x	-1
75) c1ccc(-c2noc(CSc3nc4ccccc4[nH]3)n2)cc1
    -0.55	-1.1
76) Cc1[nH]c2ccccc2c1C(=O)CSc1ncccn1
    x	0.5
77) CC(=O)Nc1ccccc1C(=O)OCc1ccccc1F
    5.3	-0.7
78) CCOc1cccc(N2C(=O)/C(=C\c3ccc(-c4ccccc4[N+](=O)[O-])o3)C(=O)NC2=S)c1
    -0.63	x
79) CCOC(=O)c1cccc(NC(=O)n2ncc3cc(Cl)ccc32)c1
    0.48	0.55
80) COc1ccc(OC)c(CNC(=O)C2CCCN(c3nc4ccccc4o3)C2)c1 (configuration not stated)
    0.57	-0.8
81) CCn1cc(/C=C(\NC(=O)c2ccco2)C(=O)N2CCc3ccccc32)c2ccccc21
    0.05	0.15
82) CC(=O)Nc1ccc(-c2nc(-c3ccco3)c(-c3ccco3)[nH]2)cc1
    x	0.9
83) CCc1ccc(C(=O)COC(=O)c2cnccn2)cc1
    0.69	2
84) NC(=O)c1cc2c(ccc3ccccc32)o1
    114	-0.1
85) O=S1(=O)CCC(N=Cc2ccc(-c3ccc(Cl)cc3)o2)C1 (configuration not stated)
    8.1	-0.55
86) CCOC(=O)NN=C1CCC(c2ccccc2)CC1 (configuration not stated)
    x	0
87) COc1ccc(-c2cc3ccccc3n2CC(O)CNC(CO)(CO)CO)cc1 (configuration not stated)
    12	-0.65
88) CCCNC(=O)c1ccc(COc2ccc(C(C)(C)C)cc2)o1
    0.015	0.05
89) O=c1c(Cc2ccc(Cl)cc2)c(O)ccn1Cc1cccc(Cl)c1
    0.45	x
90) O=C(Nc1ccc2c(c1)COCO2)c1cc2ccccc2oc1=O
    -0.96	1.1
91) CCOc1ccccc1-n1c(SCC(=O)NCc2ccco2)nc2ccccc2c1=O
    x	0.2
92) O=C(NCCc1ccc(C(F)(F)F)cc1)C1CC(=O)N(c2ccc3c(c2)OCCO3)C1 (configuration not stated)
    x	0.45
93) COc1ccc(/C=N/n2c(C)nnc2-n2nc(C)cc2C)cc1OC
    -0.83	x
94) CCCCNc1nc(SCC(=O)NC2CCCCC2)nc2ccccc12
    1.1	x
95) O=S(=O)(Cc1ccccc1Cl)CC(O)COc1ccccc1Cl (configuration not stated)
    -0.46	x
96) O=C(Nc1cccc(Cl)c1)OCc1ccc(Oc2ccccc2)c([N+](=O)[O-])c1
    -0.9	x
97) COc1cccc(-c2nnc(SCC(=O)N3c4ccccc4Sc4ccccc43)o2)c1
    x	1
98) O=C(O)NC(=O)c1ccccc1
    x	0.5
99) O=C(NCCCN1CCCC1)c1ccc2c(Cl)c3c(nc2c1)CCCC3
    -0.54	-0.9
100) Cc1n[nH]c(C)c1Sc1ccccc1NC(=O)c1ccc(F)cc1
    -0.33	-0.45
101) Cc1nn2c3ccccc3nc2n(Cc2ccccc2)c1=O
    0.18	-1.5
102) CCCN1Cc2cccc(C(=O)N3CCN(c4ccc(F)cc4)CC3)c2C1=O
    -0.3	-0.5
103) COc1ccc(-c2noc(CCCCCNC3CCSC3)n2)cc1 (configuration not stated)
    x	0.1
104) COc1ccc(CCn2c(=O)c3cccnc3n(CC(=O)NCc3ccc(C)cc3)c2=O)cc1OC
    -0.2	-0.3
105) COc1ccc(OC)c(CNCCCO)c1
    x	-0.25
106) O=C(NCc1ccco1)C1CCN(c2ccc(C(F)(F)F)cn2)CC1
    6.2	x
107) Cc1ccc2c(c1)c1c3n2CCN(CC(O)CN2CCCC2)C3CCC1 (configuration not stated)
    0.64	-0.1
108) Cn1c(=NC(=O)c2cc(=O)c3ccccc3o2)sc2cc(Br)ccc21
    0	-0.25
109) CCOC(=O)N1CCN(C(=O)CSc2nnc3[nH]c(=O)cc(-c4ccccc4)n23)CC1
    x	-1
110) Cc1nc(N2CCN(C)CC2)c2c(C)c(C(=O)N3CCN(c4cccc(Cl)c4)CC3)sc2n1
    -0.22	x
111) O=C1CC(c2cccc(O)c2)Nc2ccc3ccccc3c21 (configuration not stated)
    6.7	-1
112) Oc1[nH]c(=S)sc1C=Nc1ccccc1
    0.18	0.95
113) CCOc1ccccc1NC(=O)CSc1ccccc1Cl
    0.015	-0.2
114) O=C1CSC(c2cn(-c3ccccc3)nc2-c2cc3ccccc3oc2=O)N1CC1COc2ccccc2O1 (configuration not stated)
    24	x
115) COc1cc(C)nc(N(CCO)CCO)n1
    -0.095	-0.9
116) CCn1c(SCC(=O)Nc2nc(C)cs2)nnc1C(C)Oc1ccccc1 (configuration not stated)
    x	0.8

Retrieved by structure from the entries so far (7):
Each structure is followed by: CapD inh	AID504770
107) Cc1ccc2c(c1)c1c3n2CCN(CC(O)CN2CCCC2)C3CCC1 (configuration not stated)
    0.64	-0.1
113) CCOc1ccccc1NC(=O)CSc1ccccc1Cl
    0.015	-0.2
110) Cc1nc(N2CCN(C)CC2)c2c(C)c(C(=O)N3CCN(c4cccc(Cl)c4)CC3)sc2n1
    -0.22	x
99) O=C(NCCCN1CCCC1)c1ccc2c(Cl)c3c(nc2c1)CCCC3
    -0.54	-0.9
101) Cc1nn2c3ccccc3nc2n(Cc2ccccc2)c1=O
    0.18	-1.5
100) Cc1n[nH]c(C)c1Sc1ccccc1NC(=O)c1ccc(F)cc1
    -0.33	-0.45
106) O=C(NCc1ccco1)C1CCN(c2ccc(C(F)(F)F)cn2)CC1
    6.2	x
